PKD1 kinase inh – inhibitors of human PKD1 kinase. Q15139. PKD1 kinase fluorescence polarization assay. inhibition, %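 (about 10 µM by stock and volumes)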. hit rate 0.056% among 200,000. AID 797;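 active means inhibition of 50% or more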;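 further: controls were vehicle for no effect and a reference inhibitor for full effect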
HSV augment – increases HSV replication in cells; HSV replication augmentation in cells, fold increase; AID 1956; hit rate 0.005% among 220,000; maximum fold increase;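 active means peak rise of 1.5-fold or more in the series; tested in PC3 cells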;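 further: first round at 10 µM; read as green reporter fluorescence; hits show the peak of a series up to 25 µM; 1 = signal of infected wells without compound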
GALR2 ag – GALR2 (human) receptor agonism; O43603; hit rate 0.48% among 140,000; GALR2-expressing cells, agonist activation read-out; AID 803; activation, %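 (tested at 5 µM)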;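 active means above mean plus 3 SD of all compounds, about 5% in these data, not always enough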;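 further: 0% = vehicle buffer wells and 100% = reference agonist at full effect; tested in CHO reporter cells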
Target sequence (O43603 whole entry, looked up): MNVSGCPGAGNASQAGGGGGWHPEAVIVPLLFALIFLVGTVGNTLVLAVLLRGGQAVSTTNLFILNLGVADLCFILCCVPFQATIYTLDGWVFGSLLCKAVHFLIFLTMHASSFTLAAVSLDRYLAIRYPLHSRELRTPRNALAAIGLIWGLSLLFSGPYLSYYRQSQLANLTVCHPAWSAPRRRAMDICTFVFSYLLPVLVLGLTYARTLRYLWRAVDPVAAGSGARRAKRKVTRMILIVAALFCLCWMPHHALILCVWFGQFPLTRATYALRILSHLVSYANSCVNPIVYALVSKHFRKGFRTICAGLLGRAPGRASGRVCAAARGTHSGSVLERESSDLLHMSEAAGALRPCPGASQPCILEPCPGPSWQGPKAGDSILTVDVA
RGS16-Gao HTS – regulators of human RGS16-Galphao interaction | O15492+P09471 | bead-based flow cytometry RGS16-Galphao binding, fluorescence; actives lie on both sides | binding response (% of control), % at 10 µM | hit rate 0.38% among 220,000;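 active means below 25% or above 175%, edge rows of some plates excepted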;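 further: Galphao activated by GDP with aluminum fluoride before binding; 100% = wells without compound and 0% = beads without RGS; some results beyond the cut were filed as inactive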
Target sequence (O15492 whole entry, looked up): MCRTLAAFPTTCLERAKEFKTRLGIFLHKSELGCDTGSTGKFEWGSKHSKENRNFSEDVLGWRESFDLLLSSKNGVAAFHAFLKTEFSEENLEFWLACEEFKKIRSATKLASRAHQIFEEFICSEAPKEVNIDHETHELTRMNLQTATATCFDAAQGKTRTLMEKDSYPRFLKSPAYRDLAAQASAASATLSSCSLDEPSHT
Target sequence (P09471 whole entry, looked up): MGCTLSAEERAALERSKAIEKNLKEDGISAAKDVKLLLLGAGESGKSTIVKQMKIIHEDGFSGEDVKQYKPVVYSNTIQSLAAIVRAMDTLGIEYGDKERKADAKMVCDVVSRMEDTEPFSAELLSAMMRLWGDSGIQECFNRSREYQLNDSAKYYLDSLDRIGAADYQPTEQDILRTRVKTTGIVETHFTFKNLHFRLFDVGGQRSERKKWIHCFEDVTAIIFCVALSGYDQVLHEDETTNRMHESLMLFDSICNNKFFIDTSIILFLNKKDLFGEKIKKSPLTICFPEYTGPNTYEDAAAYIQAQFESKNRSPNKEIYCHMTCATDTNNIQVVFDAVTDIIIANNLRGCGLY
INS promoter inh – TRM-6 insulin promoter activity inhibition; TRM-6 cells (human fetal islet line), insulin promoter-eGFP reporter, imaging; reporter expression induced with tamoxifen; inhibition, % at 2 µM; hit rate 0.9% among 130,000; AID 1273;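 active means inhibition above the mean plus 3 SD, with well images judged a real hit on visual review, cut at about 60% in these data, passing the limit was not always enough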
INS promoter inh cell count – second read-out of INS promoter inh, no call of its own (marks repeat the call); normalized cell count, %; measured here: cell count, toxicity; reference of the scale not given here;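 cells exposed to compound for 48 h; stained nuclei by imaging scaled within each plate; lower means fewer cells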
HSV augment primary fold – recorded beside HSV augment, whose call it bears; fold increase; compound at 10 µM; measured here: primary screen fold increase 10 uM; tested in PC3 cells;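 GFP signal in the first replicate; 1 = infected wells without compound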
The depositor's hits bear a star; i = inactive; / = not tested or not shown; & = joins results of further samples.

mol | HSV augment | PKD1 kinase inh | INS promoter inh | RGS16-Gao HTS | INS promoter inh cell count | HSV augment primary fold | GALR2 ag
Cc1ccc(C)c(NC(=S)c2ccccn2)c1 | i | -1.9 | 28.2 | 96.0 | 143.8 | 0.69 | -1.7
Cc1ccc(C(=O)NCCc2cccs2)cc1 | i | -0.3 | / | 102.7 | / | 0.71 | /
COc1ccc(C2CC(=O)C=C(NCC3CCCO3)C2)cc1 (configuration not stated) | i | 10.6 | / | 90.9 | / | 0.997 | 0.2
C1=CC2CC1CC2CNCc1ccco1 (configuration not stated) | i | 10.3 | 6.2 | 102.5 | 79.0 | 0.89 | -1.7
CCOC(=O)C1CCCN(C(=O)c2ccccc2NC(C)=O)C1 (configuration not stated) | i | -8.2 | -10.0 | 97.8 | 62.3 | 1.04 | 0.1
Cn1c(N)c(N=Nc2ccc(S(N)(=O)=O)cc2)c(=O)n(C)c1=O | i | / | / | 81.4 | / | 1.09 | /
O=C(O)CSCc1ccc(C(=O)O)o1 | i | 3.8 | -29.2 | 98.5 | 77.1 | 1.06 | -0.5
O=C(O)c1ccc(N/N=C/c2cc3cc4c(cc3nc2Cl)OCCO4)cc1 | i | / | / | 94.7 | / | 1.06 | /
N#Cc1ccc(NC(=O)CCc2nc3ccccc3s2)cc1 | i | -3.0 | / | 100.4 | / | 1.16 | 0.1
CC(=O)Nc1ccc(Sc2ncnc3scc(-c4ccccc4)c23)cc1 | i | 6.9 | / | 100.5 | / | 0.95 | 0.8
COc1cccc(C2C(C#N)=C(N)SC(c3ccccc3)C2[N+](=O)[O-])c1 (configuration not stated) | i | -7.4 | / | 100.7 | / | 0.83 | /
Cc1ccc(S(=O)(=O)N2CCN(C(=O)c3ccc(Cl)nc3)CC2)cc1 | i | -5.9 | / | 102.4 | / | 0.93 | /
CCOc1ccc(/C=N/Nc2nc(N3CCCC3)nc(N3CCCC3)n2)cc1OC | / | -6.3 | 5.7 | 106.4 | 155.9 | / | -1.1
O=c1[nH]c(-c2ccccc2O)nc2c1CCCC2 | i | -1.9 | -25.9 | 103.3 | 140.3 | 0.89 | -0.6
Cc1cc(C)cc(OCC(=O)NNC(=O)CCC(=O)NCc2ccccc2)c1 | i | 9.2 | / | 94.3 | / | 1.02 | -0.7
Cc1ccc(NS(=O)(=O)c2ccc3[nH]c(=O)[nH]c3c2)c(C)c1 | i | 3.4 | / | 106.0 | / | 1 | /
CCn1c(C)[n+](CCOCC[n+]2c(C)n(CC)c3cc(Cl)c(Cl)cc32)c2cc(Cl)c(Cl)cc21 | i | 5.5 | -7.2 | 100.7 | 89.4 | 1.05 | -1.7
O=C(OCc1nc2ccccc2s1)c1cccc(N2C(=O)CCC2=O)c1 | i | 2.1 | / | 98.6 | / | 0.95 | /
CCSc1nc2ccccc2c(=O)n1-c1c(C)n(C)n(-c2ccccc2)c1=O | i | 0.4 | / | 104.5 | / | 0.94 | /
COC(=O)CSc1nc(-c2ccc(F)cc2)cc(C(F)(F)F)n1 | i | -4.2 | -16.3 | 106.0 | 63.4 | 0.95 | -1.0
CCN1CCN(C(=O)CCc2nnc(CCCCc3ccccc3)o2)[C@@H](C)C1=O | i | -7.5 | / | 104.9 | / | 0.98 | /
Cc1ccc(-c2nnc(SCC(=O)N3CCCC3)o2)cc1C | i | -5.0 | 2.3 | 100.2 | 127.4 | 0.96 | -2.4
COc1cc(NC(=S)Nc2ccc(S(=O)(=O)N3CCOCC3)cc2)cc(OC)c1OC | i | -0.5 | -16.7 | 92.1 | 102.6 | 0.99 | -0.6
CC(=O)Nc1ccc(SCC(=O)Nc2ccc(Cl)cn2)cc1 | i | -5.2 | / | 87.7 | / | 1.02 | /
CCc1nnc(NC(=O)C2CCCN(S(=O)(=O)c3ccccc3)C2)s1 (configuration not stated) | i | -7.2 | -56.2 | 92.0 | 21.9 | 0.93 | -1.6
COc1ccccc1-c1nc(C#N)c(NCc2ccc(F)cc2)o1 | i | -2.6 | -7.1 | 101.2 | 122.8 | 0.91 | -0.9
CCc1cccc(C)c1NC(=O)CO/N=C(\N)CC(=O)NC1CCCCC1 | i | -3.3 | -72.7 | 106.4 | 182.9 | 0.99 | /
CCC(C)(c1nnnn1-c1c(C)cccc1C)N(N=O)c1cccc(C(F)(F)F)c1 (configuration not stated) | i | -9.3 | / | 67.6 | / | 1.13 | -1.0
CC(C)CCN1CCN(Cc2ccc3nsnc3c2)CC1CCO (configuration not stated) | i | -4.3 | / | 101.6 | / | 1.04 | /
CCOc1cccc(C(=O)Nc2cc(-c3nn4c(C)nnc4s3)ccc2C)c1 | i | 7.6 | / | 96.2 | / | 1.01 | -0.4

Some of the entries above in another layout:
COc1ccccc1-c1nc(C#N)c(NCc2ccc(F)cc2)o1
  HSV augment = i | PKD1 kinase inh = -2.6 | INS promoter inh = -7.1 | RGS16-Gao HTS = 101.2 | INS promoter inh cell count = 122.8 | HSV augment primary fold = 0.91 | GALR2 ag = -0.9

CCc1cccc(C)c1NC(=O)CO/N=C(\N)CC(=O)NC1CCCCC1
  HSV augment = i | PKD1 kinase inh = -3.3 | INS promoter inh = -72.7 | RGS16-Gao HTS = 106.4 | INS promoter inh cell count = 182.9 | HSV augment primary fold = 0.99 | GALR2 ag = /

CCC(C)(c1nnnn1-c1c(C)cccc1C)N(N=O)c1cccc(C(F)(F)F)c1 (configuration not stated)
  HSV augment = i | PKD1 kinase inh = -9.3 | INS promoter inh = / | RGS16-Gao HTS = 67.6 | INS promoter inh cell count = / | HSV augment primary fold = 1.13 | GALR2 ag = -1.0

(listing goes on)
mol | HSV augment | PKD1 kinase inh | INS promoter inh | RGS16-Gao HTS | INS promoter inh cell count | HSV augment primary fold | GALR2 ag
COC(=O)c1cn(NC(=O)Cc2c(F)cccc2Cl)c(=O)c2ccccc12 | i | 0.3 | -80.0 | 95.1 | 104.5 | 0.91 | /
O=C(NCc1ccccc1Cl)c1cnccn1 | i | -0.4 | 5.9 | 101.1 | 192.2 | 0.87 | -3.1
CCOC(=O)c1ccc(NC(=S)N2CCC(C(N)=O)CC2)cc1 | i | -13.2 | / | 102.1 | / | 0.78 | -2.2
COc1ccc(Oc2c(C=O)c3ccccc3n2C)cc1 | i | 4.3 | 13.6 | 103.6 | 90.8 | 0.93 | -0.2
Cn1c(=O)c2ncn(CC(=O)NCCC3=CCCCC3)c2n(C)c1=O | i | -12.6 | 12.5 | 98.2 | 124.4 | 0.98 | -1.5
CCOc1ccc(C(=O)C2CCN(CC(=O)Nc3ccccc3N3CCOCC3)CC2)cc1 | i | -5.0 | -26.1 | 100.7 | 130.2 | 0.94 | 0.2
CC1(C)CC(=O)C2=C(C1)N(c1ccccc1)C(=O)CC2c1ccsc1 (configuration not stated) | i | -2.1 | / | 99.5 | / | 0.89 | 0.0
N#C/C(=C(/O)COC(=O)c1ccc(Cl)c(S(=O)(=O)N2CCOCC2)c1)c1nc2ccccc2[nH]1 | i | 1.3 | 45.2 | 102.0 | 135.3 | 0.99 | -0.2
CCOc1cc(CNCc2cccs2)cc(Br)c1OCC | i | -10.6 | / | 100.8 | / | 0.91 | -1.7
O=C(Nc1cccc(-c2nnc(-c3ccccc3)o2)c1)c1ccc(Br)o1 | i | -4.0 | 11.4 | 89.8 | 69.6 | 0.69 | -0.9
CC(C)(C)C(=O)Nc1cccc(C(=O)Nc2cc(C(=O)O)cc(C(=O)O)c2)c1 | i | 0.8 | 12.9 | 105.4 | 117.9 | 0.93 | -2.1
CCCC(c1nnnn1CCOC)N1CCN(c2cccc(OC)c2)CC1 (configuration not stated) | i | 3.0 | / | 100.4 | / | 0.83 | 1.6
Cc1cccc(-n2nnnc2SCC(=O)Nc2cccc(S(N)(=O)=O)c2)c1 | i | / | / | 100.8 | / | 0.92 | /
COc1ccc(N2CCN(C(=O)CSc3nnc(NC(=O)C4CC4)s3)CC2)cc1 | i | -8.0 | / | 105.5 | / | 1.02 | /
Cc1nc(-n2nnc3cc(C)c(C)cc32)c2c3c(sc2n1)CCCC3 | i | 13.1 | -6.7 | 98.0 | 95.9 | 0.93 | -0.3
COc1cccc2c1C(CO)N1C(C#N)C3CC(C(=O)O)C(C1C2)N3C (configuration not stated) | i | / | / | 96.3 | / | 0.43 | /
Cc1ccccc1OCCNc1cc(N2CCN(CCO)CC2)ccc1[N+](=O)[O-] | i | -1.6 | -17.6 | 95.3 | 108.4 | 0.69 | -1.8
N#CC1=C2SCN(c3ccccc3)CN2C(=O)CC1c1c(Cl)cccc1Cl (configuration not stated) | i | -0.2 | / | 73.3 | / | 0.97 | -1.4
Cc1ccc(OCC(=O)Nc2nnc(C3CCCO3)s2)c(Br)c1 (configuration not stated) | i | 6.1 | -26.7 | 92.5 | 83.6 | 0.88 | /
COc1ccc(/C=C/C(=O)NC(=S)NN2CCCCC2c2cccnc2)cc1OC (configuration not stated) | i | -8.2 | / | 99.0 | / | 1.06 | -0.2
NC(=O)OCC(COC(N)=O)c1ccccc1 | i | -10.2 | 56.5 | / | 152.4 | 0.92&1.03 | -1.4
CC1CCCCC1NC(=O)C1Cc2ccccc2CN1S(C)(=O)=O (configuration not stated) | i | -2.6 | / | 103.1 | / | 0.91 | 0.3
CC(C)c1nnc(SCc2ccc(CSc3nnc(C(C)C)n3N)cc2)n1N | i | -6.3 | 2.5 | 99.3 | 76.6 | 0.8 | -0.5
CC(OC(=O)c1snc(C(=O)NC2CCCCC2)c1N)C(=O)NC1CCCCC1 (configuration not stated) | i | 2.1 | 50.0 | 65.2 | 154.4 | 0.98 | -1.7
O=C(c1ccncc1)N(Cc1cc2ccccc2[nH]c1=O)C1CCCCC1 | i | -3.5 | / | 106.0 | / | 1.02 | -0.9
CC(C)Nc1nnc(SCC(=O)Nc2ccc(F)cc2)s1 | i | -2.0 | / | 104.3 | / | 1.17 | -2.4
Cc1cc(CNC(=S)Nc2cccc(Cl)c2Cl)nn1C | i | -5.3 | / | 87.5 | / | 1.03 | /
NC(=O)c1sc2nc3c(c(-c4ccccc4)c2c1N)CCC3 | i | 9.9 | 55.0 | 92.6 | 130.8 | 0.78 | -0.9
O=S(=O)(N/N=C/c1ccc(Cl)cc1)c1ccc(Cc2ncc(C(F)(F)F)cc2Cl)s1 | i | -2.0 | 48.6 | 100.8 | 91.6 | 1.01 | -2.5
COc1cc2c(cc1OC)-c1cc(N3CCc4ccccc43)nc(=O)n1CC2 | i | / | / | 99.9 | / | 0.95 | /
CCCC(=O)NC(Nc1ccccc1F)C(Cl)(Cl)Cl (configuration not stated) | i | 16.9 | / | 100.9 | / | 0.98 | 0.2
COC(=O)c1cc(OC)c(OC)cc1NC(=O)Nc1cccc(C(C)=O)c1 | i | -3.6 | / | 100.1 | / | 1.11 | /
CC(=O)OC1C(N2CCCCC2)c2c(ccc(/C=C/C(=O)N3CCCCC3)c2O)OC1(C)C (configuration not stated) | i | -7.8 | / | 104.2 | / | 0.94 | /
O=C(CN1CCCCC1)N1c2ccccc2CCc2ccccc21 | i | 2.4 | -63.9 | 100.3 | 86.0 | 1.1 | -0.6
c1ccc(CN2CCOCC2)cc1 | i | 7.6 | 8.6 | 94.4 | 61.7 | 0.78 | -2.4
Cc1ccc(S(=O)(=O)Nc2ccc(N3CCOCC3)nc2)cc1 | i | 4.2 | -16.3 | 86.9 | 83.6 | 1.12 | /
CC(=O)N/C(=C/c1ccc2c(c1)OCO2)C(=O)Nc1ccccc1 | i | -2.4 | 10.3 | 98.0 | 150.2 | 0.93 | -0.4
Cc1ccc(CSCC(=O)NCc2ccco2)cc1 | i | 11.0 | -53.9 | 101.1 | 96.5 | 0.98 | /
CCOc1cc(/C=N/NC(=O)c2cc(C)[nH]n2)ccc1OC(=O)c1ccc([N+](=O)[O-])cc1 | / | -2.9 | / | 95.7 | / | / | -0.6

Exported with two lines to a compound: entries from further up
Results follow in this order: HSV augment, PKD1 kinase inh, INS promoter inh, RGS16-Gao HTS, INS promoter inh cell count, HSV augment primary fold, GALR2 ag
NC(=O)c1sc2nc3c(c(-c4ccccc4)c2c1N)CCC3
 : i, 9.9, 55.0, 92.6, 130.8, 0.78, -0.9
O=S(=O)(N/N=C/c1ccc(Cl)cc1)c1ccc(Cc2ncc(C(F)(F)F)cc2Cl)s1
 : i, -2.0, 48.6, 100.8, 91.6, 1.01, -2.5
COc1cc2c(cc1OC)-c1cc(N3CCc4ccccc43)nc(=O)n1CC2
 : i, /, /, 99.9, /, 0.95, /
CCCC(=O)NC(Nc1ccccc1F)C(Cl)(Cl)Cl (configuration not stated)
 : i, 16.9, /, 100.9, /, 0.98, 0.2
COC(=O)c1cc(OC)c(OC)cc1NC(=O)Nc1cccc(C(C)=O)c1
 : i, -3.6, /, 100.1, /, 1.11, /
